SARS PLP yeast – qHTS of Yeast-based Assay for SARS-CoV PLP; S. cerevisiae expressing SARS-CoV PLpro, growth rescue; control for the full effect not named in the record; Potency, µM (top dose mostly 32.9 µM), without a hit: at the highest dose activity, positive = growth rescue; 0.19% of 330,000 active; also: 0% is about no effect; nearly all actives have a fitted effect of over 55% in size; growth read by luminescence after 48 h
Cruzain inh noDet – qHTS Assay for Promiscuous and Specific Inhibitors of Cruzain (without detergent). AID 1476, 2009. Potency, µM, without a hit: max response, negative = inhibition, hits mostly inhibitors. purified cruzain, Z-FR-AMC fluorescence, no detergent. 2.3% of 200,000 active. Cruzipain (Trypanosoma cruzi), P25779; active = well fitted curve in the direction sought with a large enough effect; inconclusive = small, poorly fitted or top-dose-only effect, or another doubt; inactive = no such curve, though single readings can be large; an effect the other way counts as inactive or inconclusive;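 also: plate controls were enzyme without inhibitor for no effect and buffer without enzyme for full effect; nearly all actives have a fitted effect of over 40% in size; top concentration of the series not given in the record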
Target sequence (P25779 123-467 limits assumed): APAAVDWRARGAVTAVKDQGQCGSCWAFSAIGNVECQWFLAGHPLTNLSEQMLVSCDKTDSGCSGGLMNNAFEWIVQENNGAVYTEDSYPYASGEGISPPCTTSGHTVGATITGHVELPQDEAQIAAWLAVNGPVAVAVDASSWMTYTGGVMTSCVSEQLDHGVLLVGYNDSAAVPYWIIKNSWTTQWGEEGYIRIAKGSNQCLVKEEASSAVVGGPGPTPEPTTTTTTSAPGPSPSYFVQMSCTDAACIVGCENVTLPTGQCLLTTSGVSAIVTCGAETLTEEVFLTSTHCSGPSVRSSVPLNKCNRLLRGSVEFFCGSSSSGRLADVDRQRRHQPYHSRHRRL
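Purified cruzain at 1.5 nM, pre-incubated 15 min with compound at room temperature in 100 mM sodium acetate pH 5.5, 5 mM DTT, 0.00005% Triton X-100. Reaction started with 2 uM Z-FR-AMC; AMC fluorescence increase over 60 s gives rate.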
2A StopGo – High Throughput Screening for Foot and Mouth Disease Virus Antivirals | Potency, µM (top dose mostly 57.9 µM), for the others: at the top dose signal change, negative = less light | 1.2% of 410,000 active | human cells with a luciferase reporter of 2A StopGo recoding; control for the full effect not named in the record; active = well fitted falling curve with a large enough effect; inconclusive = small, poorly fitted or top-dose-only effect; inactive = no such curve, though single readings can be large or run the other way; tested in HEK293T cells; also: % is scaled to controls: 0 for no effect and ±100 for the full control effect; nearly all actives have a fitted effect of over 45% in size; luciferase light after 4 h
NS1 function inh – qHTS Assay for Inhibitors of Influenza NS1 Protein Function; S. cerevisiae slowed by influenza A NS1, growth recovery by OD600; Potency, µM (series often up to 46.1 µM), for the others: top-dose activity, positive = more growth; 0.4% of 270,000 active; AID 2326, 2010; also: actives are rising curves; nearly all actives have a fitted effect of over 50% in size
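A cell-based growth assay was used: compounds that relieve NS1-induced slow growth of budding yeast raise OD600. Assay medium was yeast nitrogen base with ammonium sulphate and -URA supplement, pH 6.0, with 2% galactose.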
Marburg entry inh – qHTS for inhibitors of binding or entry into cells for Marburg Virus | Marburg virus pseudotyped entry inhibition, cell reporter; control for the full effect not named in the record; about a third of the inactives were read at about 46 µM | Potency, µM (titrated, usually from 37.8 µM), without a hit: at the highest dose activity change, negative = inhibition, hits mostly inhibitors | 1.8% of 300,000 active | AID 540276, 2011; active = well fitted inhibition curve with a large enough effect; inconclusive = small, poorly fitted or top-dose-only effect, or effect the other way; inactive = flat fitted curve, though single readings scatter; tested in HEK293 cells; about a fifth of its hits are not listed in these tables; also: % is scaled to controls: 0 for no effect and ±100 for the full control effect; luciferase read-out
Cruzain inh Det – qHTS Assay for Promiscuous and Specific Inhibitors of Cruzain (with detergent) | Cruzipain (Trypanosoma cruzi), P25779 | purified cruzain, Z-FR-AMC fluorescence, 0.01% Triton | Potency, µM, inactives show max response, negative = inhibition, usual class: inhibitors | 0.43% of 200,000 active | AID 1478, 2009; active = well fitted curve in the direction sought with a large enough effect; inconclusive = small, poorly fitted or top-dose-only effect, or another doubt; inactive = no such curve, though single readings can be large; an effect the other way counts as inactive or inconclusive;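 also: plate controls were neutral wells for no effect and buffer without enzyme for full effect; nearly all actives have a fitted effect of over 40% in size; top concentration of the series not given in the record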
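In this qHTS format, compounds are incubated with 1.5 nM cruzain for 15 min at room temperature before 2 uM Z-FR-AMC is added. Release of AMC is followed at 360/450 nm, and progress is taken as the 60 s fluorescence difference.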
Lassa entry inh – qHTS for Inhibitors of binding or entry into cells for Lassa Virus. Lassa virus pseudotype entry inhibition, cell reporter; control for the full effect not named in the record. Potency, µM (highest dose often 37.9 µM), without a hit: top-dose activity change, negative = inhibition, hits mostly inhibitors. 1.2% of 300,000 active. AID 540256, 2011; active means well fitted inhibition curve with a large enough effect; inconclusive means small, poorly fitted or top-dose-only effect, or effect the other way; inactive means flat fitted curve, though single readings scatter; tested in HEK293 cells; also: % is scaled to controls: 0 for no effect and ±100 for the full control effect; nearly all actives have a fitted effect of over 50% in size; luciferase read-out
RE007 growth inh – qHTS Assay for Inhibitors of the HIV-1 protein Vpr | S. pombe RE007 Vpr strain, BacTiter-Glo ATP luminescence, 24 h; control for the full effect not named in the record | Potency, µM (series often up to 92.2 µM), for the others: at the highest dose activity change, negative = less growth | 0.21% of 360,000 active | AID 651644, 2012; active = well fitted falling curve with a large enough effect; inconclusive = small, poorly fitted or top-dose-only effect; inactive = no such curve, though single readings can be large or run the other way;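 also: % is scaled to controls: 0 for no effect and ±100 for the full control effect; nearly all actives have a fitted effect of over 50% in size; the assay follows cell death caused by Vpr and the record does not say whether a fall means rescue or toxicity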
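Fission yeast strain RE007, carrying one chromosomally integrated HIV-1 vpr copy, was seeded at OD 0.01 in PMG+AL medium with 23 nL pinned compound. After 24 h at 30 °C and 99% humidity, viability was read by BacTiter-Glo luminescence.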
* marks the source's active call; other numbers are inactive results; ? = inconclusive; / = not tested or not shown; & = joins results of further samples; [ ] = dose if it differs, or a comment. Unless noted, calls follow the shape of the dose curve; as a rule, active means well fitted rising curve with a large enough effect; inconclusive means small, poorly fitted or top-dose-only effect; inactive means no such curve, though single readings can be large or run the other way. Potency is read from the fitted curve at half-maximal effect. No enrichment for hits; 4.5% or so of the library scored in one or more.

item	smiles	SARS PLP yeast	Cruzain inh noDet	2A StopGo	NS1 function inh	Marburg entry inh	Cruzain inh Det	Lassa entry inh	RE007 growth inh
1	CCOCCCNS(=O)(=O)c1ccc(NC(=O)c2ccc(OC)c([N+](=O)[O-])c2)cc1	0%	/	33%[activator]	7%	10%[46.1 µM]	/	5%	8%
2	CCOC(=O)C1=C(C)NC(=O)NC1c1cn(-c2ccccc2)nc1-c1cccs1 (configuration not stated)	-2%	-26%	/	-59%	?	-11%	-23%	16%
3	O=C(CCc1nc(-c2cccs2)no1)Nc1ccc([N+](=O)[O-])cc1	/	-17%	-22%	/	17%[46.1 µM]	-6.5%	16%[46.1 µM]	/
4	COc1ccc2nc(C)cc(Nc3ccc(N4CCN(C)CC4)cc3)c2c1	1%	/	-10%	7%	/	/	/	-2%
5	Cc1cccc(OCCSc2nc(N)cc(N)n2)c1	-2%	/	20%	-6%	/	/	/	-2%
6	CCCn1c2ccccc2c2cnn(CC(=O)N(CC)CC)c(=O)c21	0%	/	-18%	-1%	/	/	/	10%
7	Cc1cc(/C=C2\SC(=O)NC2=O)c(C)n1-c1ccc(N(C)C)cc1	-4%	/	19%	0%	22%	/	-18%	16%
8	CC1(C)CC(=O)c2cc(OCC(=O)NCC3CCCO3)ccc2O1 (configuration not stated)	-2%	8%	38%[activator]	1%	21%	-7.3%	-1%	2%
9	COCCNC(=O)c1cnn2c(C(F)F)cc(-c3ccc(C)cc3)nc12	1%	/	-7%	2%	/	/	/	6%
10	CC(C)(C)C(=O)NC(=S)NCc1ccccc1	-12%	-15%	-2%	15%	?	-1.8%	-6%	-16%
11	O=C(OCC(=O)N1CCN(C(=O)c2ccco2)CC1)c1cc(=O)c2ccccc2o1	5%	-1%	3%	-7%	4%[46.1 µM]	-0.2%	-4%	5%
12	CN(C)C(CNS(=O)(=O)c1ccc(Br)cc1)c1cccnc1 (configuration not stated)	7%	2%	25%	-3%	?	-1.3%	-1%	3%
13	COc1ccc(CN2CCN(c3ccccc3)CC2)c(C)c1C	8%	-5%	-16%	-60%	?	6.0%	10µM*	-13%
14	Cc1ccc(-n2nnnc2CNC(=O)C2CC(=O)N(c3ccccc3)C2)cc1C (configuration not stated)	15%	9%	-3%&-14%	4%	/	3.2%	8%[46.1 µM]	-2%
15	Cc1ccc(C2=CSC3=NS(=O)(=O)CCN23)cc1C	-1%	-9%	-19%	2%	?	2.7%	1%	0%
16	CNC(=O)c1sc(Nc2cc(C)ccc2C)nc1C	-1%	/	-1%	-3%	-7%[46.1 µM]	/	18%	0%
17	O=C(CCc1nnc2n(Cc3ccccc3)c(=O)c3ccccc3n12)NCCCN1CCCCC1	2%	/	6%	-9%	?	/	24%[46.1 µM]	1%
18	COc1ccc(NC(=O)CSc2nnc(-c3ccco3)c(-c3ccco3)n2)cc1OC	-1%	/	-8%	4%	?	/	?	-3%
19	O=C(NNc1nc2ccccc2s1)c1ccc(F)cc1	22%	1%	20%	-21%	?	0.8%	-14%	-6%
20	COCCn1c(SCc2nc3cc(OC)c(OC)cc3c(=O)[nH]2)nnc1-c1ccncc1	-4%	-6%	19%	15%	2%	-4.3%	0%	-1%
21	COc1cc(C)ccc1OCCSc1nnc(-c2ccc(C)cc2)o1	/	1%	-12%	/	3%[46.1 µM]	-10%	13%[46.1 µM]	/
22	CN(C)S(=O)(=O)c1cccc(C(=O)NC(=S)N(CCC#N)Cc2cccnc2)c1	2%	/	-4%	/	?	/	?	12%
23	O=[N+]([O-])c1ccc(COc2cccc3cccnc23)cc1	7%	/	32%[activator]	0%	4%	/	?	-13%
24	ONC(=Nc1ccc(Cl)cc1)c1ccccc1	-6%	-5%	4%	0%	2%	-1.8%	1%	31%
25	CCn1cc(C(=O)NCc2ccco2)c(=O)c2cc(S(=O)(=O)N3CCCCCC3)ccc21	?	?	-29%	10%	?	-3.6%	?	-18%
26	COc1ccccc1OCc1ccc(C(=O)Nc2ccc(C)c(C)c2)o1	/	4%	-10%	/	/	-3.2%	?	/
27	COc1cccc(/C=N/NC(=O)c2cc3c(OC)cccc3[nH]2)c1OC	-8%	13%	?	-27%	-1%	-11%	-10%	/
28	CCOc1ccc(-c2csc(-c3nc(-c4ccc(Br)s4)cs3)n2)cc1	/	-4%	-4%	/	3%[46.1 µM]	0.2%	6%[46.1 µM]	/
29	CCn1cc(/C=N\NC(=O)Cc2ccc([N+](=O)[O-])cc2)c(C)n1	6%	3%	0%	-19%	20%	-1.3%	0%	-4%
30	CCc1nc2ccc(C(=O)NCCCN3CCN(c4ccccc4F)CC3)cc2nc1CC	0%	/	0%	0%	10µM*	/	?	-15%

Another view of some results above.
Every second line gives: SARS PLP yeast, Cruzain inh noDet, 2A StopGo, NS1 function inh, Marburg entry inh, Cruzain inh Det, Lassa entry inh, RE007 growth inh
29: CCn1cc(/C=N\NC(=O)Cc2ccc([N+](=O)[O-])cc2)c(C)n1
 : 6%, 3%, 0%, -19%, 20%, -1.3%, 0%, -4%
30: CCc1nc2ccc(C(=O)NCCCN3CCN(c4ccccc4F)CC3)cc2nc1CC
 : 0%, /, 0%, 0%, 10µM*, /, ?, -15%

Further structures.
item	smiles	SARS PLP yeast	Cruzain inh noDet	2A StopGo	NS1 function inh	Marburg entry inh	Cruzain inh Det	Lassa entry inh	RE007 growth inh
31	Cc1cc(S(=O)(=O)NC2CCCC2)ccc1-n1cnnn1	-1%	/	30%[activator]	25%	-11%[46.1 µM]	/	-7%	1%
32	Cc1c(C)c2c(OCC(=O)Nc3ccc(CCO)cc3)cc3c(c2oc1=O)CCC(C)(C)O3	-2%	/	-16%	6%	/	/	/	18%
33	CC(C)(C)OC(=O)N1CCC(c2c(C(=O)N3CCCCC3)cnn2-c2cccc(F)c2)CC1	/	-3%	-19%	/	/	-1.0%	5%[46.1 µM]	/
34	CCOC(=S)SCC(=O)Nc1nccs1	-1%	/	22µM*	5%	?	/	-12%	-24%
35	COc1ccccc1NC(=O)C1CCCN(S(=O)(=O)c2ccc(-n3cnnn3)cc2)C1 (configuration not stated)	-3%	/	-13%	4%	-16%[46.1 µM]	/	3%[46.1 µM]	10%
36	CCOc1ccc(NC(=O)C2CCCN(c3cnccn3)C2)cc1 (configuration not stated)	?	-2%	-23%&-1%	-3%	19%&11%[46.1 µM]	-2.7%	-11%&3%[46.1 µM]	16%
37	Cc1c(Cl)c([N+](=O)[O-])nn1CC(=O)N1CCCc2ccccc21	6%	5%	17%	15%	7%	-5.0%	14%	-6%
38	O=c1ccnc(SCCc2ccc([N+](=O)[O-])cc2)[nH]1	/	/	34%[activator]	/	-2%[46.1 µM]	/	-1%[46.1 µM]	-25%
39	CCOc1ccc(S(=O)(=O)N2CCCCC2)cc1NC(=O)c1c(CC)noc1C	/	/	-5%	/	5%	/	0%	6%
40	COc1ccc(N(Cc2cccs2)C(=O)COc2cccc(Cl)c2)cc1	/	11%	0%	/	-23%[46.1 µM]	-8.0%	9%[46.1 µM]	/
41	O=C(NC(=C(Cl)Cl)P(=O)(c1ccccc1)c1ccccc1)c1ccccc1	0%	9%	-22%	-11%	-45%	0.6%	-2%	-9%
42	CCCCCNCC(=O)Nc1cc(C(F)(F)F)ccc1OCCOC	-5%	/	-10%	0%	/	/	/	-9%
43	COc1cc(NC(=O)Cn2nc(C(F)(F)F)c3c2CCC3)cc(OC)c1OC	/	?	?	/	?	-2.5%	-4%[46.1 µM]	/
44	O=C(CN1CCOCC1)NNc1c2ccccc2nc2ccccc12	-1%	/	18%	1%	-21%[46.1 µM]	/	-18%[46.1 µM]	8%
45	Cc1ccc(C(=O)COC(=O)CNC(=O)c2ccco2)cc1	0%	-2%	-5%	-6%	0%	-0.7%	-4%	-7%[3.69 µM]
46	Cc1ccccc1SCCNC(=O)c1ccccc1Br	0%	/	35%[activator]	-11%	-16%[46.1 µM]	/	?	-2%
47	O=C(Nc1ccc(S(=O)(=O)N2CCCC2)cc1)c1cccs1	-1%	/	19%	-2%	-5%[46.1 µM]	/	?	-23%
48	S=c1[nH]nc(-c2ccco2)n1/N=C/c1ccc(Cl)c(Cl)c1	-38%	12%	0%	11%	16%	-2.5%	-17%	-5%
49	O=[N+]([O-])c1ccc(OCCCCN2CCc3ccccc3C2)cc1	2%	/	-9%	19%	?	/	28%[46.1 µM]	-15%
50	Cc1c(C=Nc2ccc(S(=O)(=O)N(C)C)cc2)c(O)[nH]c(=O)c1C#N	/	/	-10%	/	-26%	/	9%	-9%
51	CN1CCN(S(=O)(=O)c2cccc(C(=O)N(Cc3nnc(-c4ccccc4Cl)o3)C3CC3)c2)CC1	-8%	/	1%	1%	3%	/	3%	-19%
52	Cc1cc(C)c2c3c(sc2n1)C(=O)N(C)CC(=O)N3	8%	13%	-1%	12%	0%	4.4%	0%	-1%

In another format: entries from further up.
51	CN1CCN(S(=O)(=O)c2cccc(C(=O)N(Cc3nnc(-c4ccccc4Cl)o3)C3CC3)c2)CC1
- SARS PLP yeast = -8%
- Cruzain inh noDet = /
- 2A StopGo = 1%
- NS1 function inh = 1%
- Marburg entry inh = 3%
- Cruzain inh Det = /
- Lassa entry inh = 3%
- RE007 growth inh = -19%
52	Cc1cc(C)c2c3c(sc2n1)C(=O)N(C)CC(=O)N3
- SARS PLP yeast = 8%
- Cruzain inh noDet = 13%
- 2A StopGo = -1%
- NS1 function inh = 12%
- Marburg entry inh = 0%
- Cruzain inh Det = 4.4%
- Lassa entry inh = 0%
- RE007 growth inh = -1%

Compound activity (PubChem)
